Sa growth inh: inhibitors of Staphylococcus aureus growth at 42 °C; S. aureus RN4220 growth, OD600, 20 h; stronger effect = lower value; 170,000 compounds, 0.53% hits; relative growth, % (concentration not given with the values);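 active = growth at 42 °C up to 50% and 20 or more points under that at 30 °C, or under 10% at both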;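 note: 300 nL library stock went into each well; scaled to the means of positive and negative controls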
HCMV NEC inh: cytomegalovirus nuclear egress complex inhibition. 190,000 compounds, 0.15% hits. inhibition, % (test concentration not listed). HTRF UL50-UL53 interaction, normalized percent inhibition;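 active = both replicates at 50% or more, plus weaker picks with an unusually low signal ratio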;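 note: stock transfer was 100 nL into about 20 µL; 0% = negative control wells and 100% = wells with untagged competitor protein; inactives centre near -12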
GIV Gai3 FP: blocks GIV peptide binding to rat Galpha-i3; 210,000 compounds, 0.42% hits; percent of control (FP), % (test concentration not listed); Galpha-i3/FITC-GIV peptide fluorescence polarization, 90 min; stronger effect = lower value; scaled: aluminum fluoride 0%, vehicle 100%; AID 1224905;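 active = replicate mean at 85% of control or lower, very high polarization wells dropped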;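 note: wells of about 15 µL received 100 nL stock; the first replicate is given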
Target sequence (P08753 whole entry, looked up): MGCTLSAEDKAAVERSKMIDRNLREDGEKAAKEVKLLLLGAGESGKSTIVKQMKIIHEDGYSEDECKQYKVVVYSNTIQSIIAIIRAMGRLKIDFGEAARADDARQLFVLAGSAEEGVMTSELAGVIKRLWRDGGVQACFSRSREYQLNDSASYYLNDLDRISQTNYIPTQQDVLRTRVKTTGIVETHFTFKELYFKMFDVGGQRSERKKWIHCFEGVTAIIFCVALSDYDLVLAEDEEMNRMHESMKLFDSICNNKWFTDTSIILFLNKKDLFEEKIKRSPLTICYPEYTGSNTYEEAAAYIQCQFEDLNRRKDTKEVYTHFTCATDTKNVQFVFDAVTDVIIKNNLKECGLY
Sa growth inh second temp: also measured in Sa growth inh; calls as there; relative growth, %; measured here: growth at 30 °C;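 optical density after 20 h as mean of two plates; 100% = untreated growth and lower means inhibition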
* hit, by the source's call; · = no result given; & = joins results of further samples.

Every second line gives: Sa growth inh second temp	Sa growth inh	HCMV NEC inh	GIV Gai3 FP
CCn1c(SCC(=O)C23CC4CC(CC(C4)C2)C3)nnc1-c1ccco1
    83	90	-8	·
COCCOC(=O)C1=C(C)N(Cc2ccccc2)C(=O)NC1c1ccc(OCc2ccccc2)cc1 (stereo not given)
    ·	·	1	114
CCNc1nc(-c2ccccc2)no1
    89	89	-23	100
c1ccc(N=P(N2CCOCC2)(N2CCOCC2)N2CCOCC2)cc1
    87	68	-13	·
COc1cc(OC)cc(C(=O)Nc2nc(CC(=O)Nc3ccc(Br)cc3)cs2)c1
    ·	·	-30	104
COCC(C)NC(=O)c1cc2cc(OC)ccc2[nH]1 (stereo not given)
    95	105	4	99
CCc1nc2c(=O)[nH]c3ccccc3c2o1
    87	97	6	103
Cc1coc(=O)n1-c1ccc(Cl)cc1Cl
    98	109	-3	100
O=c1[nH]c(-c2cccs2)nc2ccccc12
    84&89	112&99	-1&-5	104&103
Cc1cc(C)nc(-n2[nH]c3nccc(-c4ccc5c(c4)OCO5)c3c2=O)n1
    ·	·	-30	97
CCOC(=O)C1=C(C)N=c2s/c(=C\c3ccc(O)cc3)c(=O)n2C1c1ccc(OCC)c(OCC)c1 (stereo not given)
    ·	·	-5	162
CC(C)(C)CC(C)(C)N=C1NS(=O)(=O)c2ccccc21
    88	94	-29	99
CCOC(=O)C1=C(C)Nc2ccccc2N=C1N
    92	74	-6	·
CN(C)S(=O)(=O)c1ccc(/C(O)=C2\C(=O)C(=O)N(Cc3cccnc3)C2c2cccnc2)cc1 (stereo not given)
    81	64	-47	99
Cc1nc2nc(-c3ccc(C(C)(C)C)cc3)nn2c(C)c1CC(=O)N(C)Cc1ccccc1
    ·	·	-10	100
CC(C)n1c(=S)[nH]c2ccccc2c1=O
    61	104	·	108
COC(=O)c1c(C)oc2ccc(NS(=O)(=O)c3ccc(OC)cc3)cc12
    75	79	-24	102
CCc1ccc(-n2nnc(-c3nc(-c4cccs4)no3)c2N)cc1
    96	113	·	105
COc1ccc(Cl)cc1NC(=O)c1cnc(N2CCCCC2)c2ccccc12
    97	108	·	109
CCOC(=O)c1oc2ccccc2c1CSc1ccccn1
    86	90	-12	103
O=C(O)CNc1nc(C(F)(F)F)nc2c1cnn2Cc1ccccc1
    96	102	-15	·
Cc1cc(C)cc(OCC(O)CNC(C)(C)C)c1 (stereo not given)
    95	99	16	·
O=C(CN1CCCC1)N/N=C/c1ccc(-c2cccc(Cl)c2Cl)o1
    122	93	-65	105
Cc1ccc(N2CCN(C(=O)CCC3=NS(=O)(=O)c4ccccc4N3)CC2)c(C)c1
    ·	·	-5	108
CCOc1ccc(CNC(=O)C2CCCN(S(=O)(=O)N3CCOCC3)C2)cc1 (stereo not given)
    109	100	-16	110
Cc1ccc2c(CC(=O)NCCc3ccc(S(N)(=O)=O)cc3)coc2c1
    91	113	-20	·
Cc1cc(C(=O)COC(=O)/C=C/c2ccc3c(c2)OCO3)c(C)n1C1CC1
    95	84	-30	·
CCCCSCCCNC(=O)c1c[nH]c2ccc(S(=O)(=O)Nc3cccc(OC)c3)cc2c1=O
    84	120	·	102
O=C(Nc1nccs1)C12CC3CC(C1)CC(C(=O)Nc1nccs1)(C3)C2
    92	104	·	99
COc1ccc(C2=NN(S(=O)(=O)c3ccccc3)C(c3cccc(OC)c3OC)C2)cc1OC (stereo not given)
    ·	·	-18	120
CCN(CC)S(=O)(=O)c1cccc(-c2nnc(C(=O)c3ccc(C(F)(F)F)cc3)o2)c1
    88	78	-14	·
O=C(NC1CCCC1)c1cncc(NS(=O)(=O)c2ccc3c(c2)OCCO3)c1
    ·	·	-20	102
Cn1c(SCC(=O)NC(C)(C)C)nc2cccnc21
    91	102	-31	102
CC(CNC(=O)Cn1ncn2c(cc3ccccc32)c1=O)c1ccccc1 (stereo not given)
    ·	·	-11	98
Cc1ccc(C)c(CN2CCCN(CC(=O)Nc3ccc(C)c(C)c3)S2(=O)=O)c1
    89	91	·	101
CC1CCc2nc3ccccc3c(C(=O)O)c2C1 (stereo not given)
    95	109	0	107
COc1ccc(NC(=O)C(c2ccccc2)N(C)C(=O)/C=C\c2ccc3c(c2)OCO3)cc1 (stereo not given)
    89	111	-22	100
CCOC(=O)c1cc2n(n1)CC(C)(C(=O)NCCC(C)C)N(c1cc(OC)cc(OC)c1)C2=O (stereo not given)
    ·	·	-2	100
CCc1cc(C(Nc2ccccn2)c2ccc3c(c2)OCO3)c(NC(=O)c2ccccc2)s1 (stereo not given)
    ·	·	-22	108
CCc1ccc(NC(=O)c2cnc3c(-c4ccccc4)c(C)nn3c2C)cc1
    93	106	·	103

Single entries from the results shown:
HCMV NEC inh with `O=C(O)CNc1nc(C(F)(F)F)nc2c1cnn2Cc1ccccc1` is entered as -15
GIV Gai3 FP with `O=C(NC1CCCC1)c1cncc(NS(=O)(=O)c2ccc3c(c2)OCCO3)c1` is entered as 102
Sa growth inh with `CCCCSCCCNC(=O)c1c[nH]c2ccc(S(=O)(=O)Nc3cccc(OC)c3)cc2c1=O` is entered as 120

Additional results follow:
Every second line gives: Sa growth inh second temp	Sa growth inh	HCMV NEC inh	GIV Gai3 FP
CC1CCCCC1NC(=O)Cn1cc2c(n1)CCCCC2 (stereo not given)
    95	119	-1	105
CCC(=O)Nc1ccccc1N1CCN(c2ccc(F)cc2)CC1
    98	126	-28	102
O=C(c1cc(=O)c2ccccc2o1)N1CCN(CCc2ccncc2)CC1
    ·	·	-31	111
O=c1c2sccc2n(Cc2cc(=O)n3ccccc3n2)c(=O)n1-c1cccc(C(F)(F)F)c1
    79	90	2	101
O=C(c1ccccc1)N1CCCCC(S(=O)(=O)c2ccccc2)C1=O (stereo not given)
    104	111	16	·
NC(=S)NNc1ccc(S(N)(=O)=O)cc1
    88	94	-24	105
CCc1ccc(C2CC(=O)c3c([nH]c(C(=O)OC4CCCCCC4)c3C)C2)cc1 (stereo not given)
    93	103	-1	109
CN(C)c1nc2ccc(O)cc2s1
    80	105	-11	96
C#CCSc1nnc2n(CC)c(=O)c3c(n12)-c1ccccc1CC31CCCCC1
    110	107	0	110
O/N=C/C(=N/O)c1ccc(Br)cc1
    94	117	-40	99
COC(=O)C1=C(C)NC(=O)CC1C(=O)NCc1ccccc1 (stereo not given)
    70	91	·	101
COc1cccc(-c2n[nH]c3c2C(c2ccccn2)N(C)C3=O)c1 (stereo not given)
    80	100	-18	102
COc1cccc(C(=O)Nc2ccc(-c3ccc4nnc(C)n4n3)cc2)c1OC
    83	98	-58	109
CNC(=O)Cn1c(-c2cccs2)cc2ccccc21
    88	95	·	100
CCOC(=O)c1ccc(NC(=O)Cn2cc(C(=O)c3ccc(Cl)cc3)c(=O)c3ccc(C)nc32)cc1
    91	96	·	106
CC1=C(C(=O)Nc2ccc(C(=O)NCCCN3CCCCC3)cc2)SCCO1
    88	95	-30	103
Cc1cc(C)cc(OCC(O)Cn2c(C3CC3)nc3ccccc32)c1 (stereo not given)
    ·	·	11	105
Clc1ccc(OCc2cn3ccccc3n2)c2ncccc12
    57	101	-29	·
CCc1ccc(CNC(=O)c2cc(=O)[nH]c3ccc(S(=O)(=O)N4CCCCC4)cc23)cc1
    91	123	·	106
CN(C)c1ccc(C(CNC(=O)Cc2ccc(Cl)cc2)N2CCOCC2)cc1 (stereo not given)
    88	90	·	104
COCCn1ccc2nc(C)c(C(=O)N3CCOCC3)cc2c1=O
    ·	·	7	105
CCOC(=O)CSC1=C(C#N)C(c2cccc(Cl)c2)CC(=O)N1 (stereo not given)
    86	94	4	·
O=C1c2ccccc2C(=O)N1/N=C/c1cn(-c2ccccc2)nc1-c1cccs1
    91	99	-18	·
Cc1ccc(NC(=O)CCC(=O)N2Cc3ccccc3Oc3ncccc32)c(C)c1
    92	107	·	101
CCNc1nc(NC(C)C)nc(Oc2ccc(/C=N/O)cc2)n1
    86	86	·	101
Cc1ccccc1-c1nc(SCC(=O)NCc2ccco2)c2c(=O)n(C)c(=O)n(C)c2n1
    88	79	·	97
CC(=O)Nc1cccc(OCc2cc(=O)n3nc(CC(C)C)sc3n2)c1
    77	95	-10	105
O=C(c1ccccc1)N1CCOc2ccccc21
    87	90	-35	103
Cc1ccc(-c2noc(C3CCCN(S(=O)(=O)c4ccccc4)C3)n2)cc1 (stereo not given)
    ·	·	-27	104
O=C(CCc1ccccc1)NCc1ccccc1
    95	98	3	101
COc1ccc(CCN2C(=O)c3ccccc3CC2(C)C(=O)NC2CCCCC2)cc1OC (stereo not given)
    ·	·	2	100
COc1ccc(O)c(C(=O)OC(C(=O)N(C)C)c2ccccc2)c1 (stereo not given)
    97	95	2	·
Cc1cccc(N(C)C(=O)c2cc(S(=O)(=O)N3CCCCC3)c[nH]2)c1
    96	99	·	103
NS(=O)(=O)c1ccc(CNC(=O)COc2ccc(Cl)cc2)cc1
    73	119	2	97
O=C1C2C3C=CC(C3)C2C(=O)N1c1ccc2c(c1)OCO2 (stereo not given)
    82	112	-12	104
COc1ccc(CC(=O)N2CC(=O)Nc3ccc(F)cc3C2c2ccccc2)cc1 (stereo not given)
    86	79	-48	101
COc1ccc(-n2c(C)cc(CNS(=O)(=O)c3cccc4nsnc34)c2C)cc1
    ·	·	-64	104
CCOc1ccc(Cn2c(CNS(=O)(=O)c3c(C)cc(C)cc3C)nc3cccnc32)cc1
    82	76	·	103
CC1SC(NC(=O)COc2ccccc2)=NC1=O (stereo not given)
    78	89	-19	104
Cc1ccc(Cl)cc1-n1c(=O)c2sc3ccccc3c2n(Cc2ccccc2)c1=O
    88	108	-36	104
Cc1cc(C)cc(-n2ccnc2SCC(=O)Nc2ccc(C)c(Cl)c2)c1
    88	116	·	105
O=C(NCCc1ccccc1)c1nn(-c2ccccc2F)nc1CO
    95	99	1	98
CC1=C(C(=O)OCc2ccc3c(c2)OCO3)C(c2cc3c(cc2Br)OCO3)NC(=O)N1 (stereo not given)
    ·	·	-15	102
CN1CCN(CCCC(=O)c2ccc(F)cc2)CC1
    111	117	3	105
Cc1cc(NC(=O)c2cnc3sccn3c2=O)no1
    86	112	-1	96
Cc1ccc(NC(=O)OC2CCCCCCC2)cc1
    86	66	4	·
COc1cc(-c2oc3ccc(C)cc3c(=O)c2O)cc(OC)c1OC
    83	88	-37	106
O=C1c2ccc(C34CC5CC(CC(C5)C3)C4)cc2C(=O)N1CCN1CCOCC1
    100	95	6	107
CCOC(=O)C1=C(O)CN=C1C
    88	97	38	103
COC(=O)c1ccc2c(=O)n3nc(Nc4ccc(F)cc4F)sc3nc2c1
    82	109	·	108
CN1C(=O)c2ccccc2Sc2ccc(C(=O)O)cc21
    85	110	·	110
CCN1C(=O)C(=Cc2ccc(-c3ccccc3F)o2)C(=O)N(CC)C1=S
    83	82	·	104
CC(C)n1cc(NC(=O)c2cc(-c3ccccc3)on2)cn1
    64	92	-20	101
O=C(O)/C=C/C(=O)N1CCc2ccccc21
    90	87	-10	·
CCOC(=O)c1sc2nc(C)nc(NCCCOC)c2c1C
    85	86	-27	·
Cc1nc(Nc2ccc(NC(=O)C3CCCC3)cc2)cc(N2CCOCC2)n1
    ·	·	-26	99
CCOC(=O)c1c(-c2ccccc2)oc2c1cc(OC(=O)c1cccc(C)c1)c1ccccc12
    ·	·	-4	100
Cc1cccc(N2CCN(C(=O)c3cccc(N4CCCS4(=O)=O)c3)CC2C)c1 (stereo not given)
    ·	·	-21	100
Cc1cccc(C)c1NC(=O)c1cc(S(=O)(=O)N2CCc3ccccc3C2)ccc1F
    103	105	·	110
CC1Cc2ccccc2N1C(=O)CSc1nnc(-c2ccccc2)o1 (stereo not given)
    96	125	-5	104

The list goes on.
Every second line gives: Sa growth inh second temp	Sa growth inh	HCMV NEC inh	GIV Gai3 FP
O=C(O)c1ccc(S(=O)(=O)Nc2ccc3oc(=O)sc3c2)cc1
    81	111	-20	92
CCC(Oc1ccccc1)C(=O)Nc1nnc(S(=O)(=O)Nc2ccccc2)s1 (stereo not given)
    74	137	-13	103
CCc1noc2nc(C)nc(NC3CCCC3)c12
    ·	·	-31	105
CCc1ccccc1N(CC)C(=O)c1cc2c(s1)-c1ccccc1SC2
    79	67	-24	100
COc1ccccc1CC(CC(=O)O)C(=O)O (stereo not given)
    86	99	-11	103

A different layout for some results above.
> CN(C)S(=O)(=O)c1ccc(/C(O)=C2\C(=O)C(=O)N(Cc3cccnc3)C2c2cccnc2)cc1 (stereo not given)
  Sa growth inh second temp: 81
  Sa growth inh: 64
  HCMV NEC inh: -47
  GIV Gai3 FP: 99
> Cc1nc2nc(-c3ccc(C(C)(C)C)cc3)nn2c(C)c1CC(=O)N(C)Cc1ccccc1
  Sa growth inh second temp: ·
  Sa growth inh: ·
  HCMV NEC inh: -10
  GIV Gai3 FP: 100
> CC(C)n1c(=S)[nH]c2ccccc2c1=O
  Sa growth inh second temp: 61
  Sa growth inh: 104
  HCMV NEC inh: ·
  GIV Gai3 FP: 108
> COC(=O)c1c(C)oc2ccc(NS(=O)(=O)c3ccc(OC)cc3)cc12
  Sa growth inh second temp: 75
  Sa growth inh: 79
  HCMV NEC inh: -24
  GIV Gai3 FP: 102

No enrichment for hits; 0.79% or so of the library scored in one or more.
